# gsp ag: agonists of gsp mutant (McCune-Albright syndrome); gsp mutant cells, cAMP HTRF, 30 min; control for the full effect not named in the record; Potency, µM (titrated, usually from 76.9 µM), for inactives: at the highest dose activation (cAMP increase), actives largely listed as activators; 0.13% of 340,000 active; AID 624287; active = well fitted activation curve with a large enough effect; inconclusive = small, poorly fitted or top-dose-only effect, or another doubt; inactive = no such curve, though single readings can be large or run the other way; cell line not stated here;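 also: phosphodiesterase inhibitor Ro 20-1724 added with compounds to block cAMP breakdown; potency is read from the fitted curve at half-maximal effect; nearly all actives have a fitted effect of over 60% in size; about a fifth of the inactives were tested at one dose only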
#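 Cells in DMEM/10% FBS with G418 were pretreated with compounds in DMSO plus […] (300 uM stock) for 30 min at 37C. cAMP was measured by HTRF (cAMP-d2 plus anti-cAMP antibody-K) after 30 min at room temperature.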
# gsp antag: antagonizes gsp, the McCune-Albright syndrome mutation | gsp-mutant cells, cAMP HTRF, 30 min; control for the full effect not named in the record | Potency, µM (doses to about 76.9 µM), inactives show at the top dose activity change, negative = inhibition, most hits filed as inhibitors | 0.4% of 340,000 active; active = falling curve of any shape with a large fitted effect; inconclusive = falling curve, mostly with a smaller effect; inactive = flat or rising curve; cell line not stated here;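 also: intracellular cAMP measured with PDE inhibitor Ro 20-1724 present during compound exposure; potency is read from the fitted curve at half-maximal effect; % is scaled to controls: 0 for no effect and ±100 for the full control effect; nearly all actives have a fitted effect of over 65% in size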
#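 Cells in G418 medium, seeded 16-24 h, 37C; buffer exchange to DPBS + 1 mM CaCl2, 0.5 mM MgCl2, 0.05% BSA; cpds in DMSO + […] (300 uM stock), 30 min 37C; HTRF cAMP detection.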
# ClpP mod: qHTS Assay for Activators of ClpP. purified B. subtilis ClpP, FRET peptide cleavage, 20 min. 1.9% of 340,000 active. Potency, µM (highest dose often 57.5 µM), inactives show at the highest dose activity change, negative = active; active = well fitted falling curve with a large enough effect; inconclusive = small, poorly fitted or top-dose-only effect; inactive = no such curve, though single readings can be large or run the other way; also: potency is read from the fitted curve at half-maximal effect; the source files actives as falling curves though it sought activators and does not explain the sign; nearly all actives have a fitted effect of over 65% in size; many hits overshoot -100%
# Target sequence (P80244 whole entry, looked up): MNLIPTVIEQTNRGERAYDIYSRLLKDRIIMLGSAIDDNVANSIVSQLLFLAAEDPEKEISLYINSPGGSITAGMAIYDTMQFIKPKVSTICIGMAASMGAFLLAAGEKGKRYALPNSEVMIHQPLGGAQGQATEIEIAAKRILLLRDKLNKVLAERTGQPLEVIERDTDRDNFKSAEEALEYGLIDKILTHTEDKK
#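 Buffer: 100 mM Tris/HCl pH8, 100 mM KCl, 0.05% low protease BSA, 2.5% glycerol, 0.01% Tween-20. ClpP 10 microg/mL final; 20 min RT; delta FRET normalized to ADEP and DMSO controls.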
# Sfp PPTase inh: inhibitors of Bacillus subtilis Sfp phosphopantetheinyl transferase. Biochemical Sfp PPTase activity, qHTS. Potency, µM, for inactives: max response, negative = inhibition, usual class: inhibitors. 3.5% of 310,000 active. AID 1490; active = well fitted inhibition curve with a large enough effect; inconclusive = small, poorly fitted or top-dose-only effect, or another doubt; inactive = no such curve, though single readings can be large or run the other way;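 also: the enzyme is Sfp with the accession as filed and its product quenches rhodamine fluorescence; potency is read from the fitted curve at half-maximal effect; 0% = enzyme reaction without inhibitor and -100% = no enzyme wells; top concentration of the series not given in the record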
#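 Sfp 15 nM + cpd, 15 min RT; start w/ rhodamine-CoA 5 uM, BHQ-2-YbbR 12.5 uM (final); 50 mM Hepes pH 7.6, 10 mM MgCl2, 0.01% NP-40, 0.01% BSA; read 525/598 nm at 0 and 30 min.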
# Menin-MLL FL inh: inhibitors of human menin-MLL interaction, wild-type MLL peptide; Fluorescence polarization, fluorescein-MLL peptide displacement from menin; FP activity change, % at 61.4 µM; 290,000 tested, under 10 active; AID 1766; inconclusive = falling polarisation curve, or a change in total fluorescence; inactive = total fluorescence flat and polarisation flat or rising; no compound was filed as active; the % refers to the polarisation; negative = inhibition;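 also: % of control where 0% means no effect; inhibitors lower the polarisation; unlabelled MLL peptide was the positive control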
# TRPV1 potentiator: human TRPV1 potentiation. 0.02% of 320,000 active. potentiation, % at 8.33 µM. TRPV1-expressing cells, Fluo-8 calcium influx, capsaicin EC20 potentiation; host cell line not named in the record; control for the full effect not named in the record. Q8NER1; active means potentiation above 80%; inconclusive means 30% to 80%; inactive means below 30%; also: 0% is about no effect
# Target sequence (Q8NER1 whole entry, looked up): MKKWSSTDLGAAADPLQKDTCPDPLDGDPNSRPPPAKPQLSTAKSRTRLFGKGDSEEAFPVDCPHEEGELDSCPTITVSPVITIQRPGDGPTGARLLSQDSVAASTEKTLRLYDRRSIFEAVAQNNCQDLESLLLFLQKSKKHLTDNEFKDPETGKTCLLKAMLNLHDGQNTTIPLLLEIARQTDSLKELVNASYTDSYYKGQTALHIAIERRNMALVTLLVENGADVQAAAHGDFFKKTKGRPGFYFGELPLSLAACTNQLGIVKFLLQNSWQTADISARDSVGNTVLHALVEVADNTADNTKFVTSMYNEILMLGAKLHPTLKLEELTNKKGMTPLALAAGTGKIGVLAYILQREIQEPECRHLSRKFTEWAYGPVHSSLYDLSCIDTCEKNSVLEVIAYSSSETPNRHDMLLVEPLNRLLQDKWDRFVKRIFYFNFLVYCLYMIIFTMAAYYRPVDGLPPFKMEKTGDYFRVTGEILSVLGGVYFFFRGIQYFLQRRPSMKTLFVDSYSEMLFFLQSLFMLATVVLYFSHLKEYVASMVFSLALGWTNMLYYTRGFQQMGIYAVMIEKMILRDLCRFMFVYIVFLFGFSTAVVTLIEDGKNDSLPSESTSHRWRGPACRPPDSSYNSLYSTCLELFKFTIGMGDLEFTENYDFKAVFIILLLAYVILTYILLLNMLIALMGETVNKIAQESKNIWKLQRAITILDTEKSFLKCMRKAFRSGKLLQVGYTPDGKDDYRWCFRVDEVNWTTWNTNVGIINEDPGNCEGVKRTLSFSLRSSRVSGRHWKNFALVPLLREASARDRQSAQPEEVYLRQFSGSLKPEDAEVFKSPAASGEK
#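 Cells expressing TRPV1 were dye-loaded with Fluo-8 and read kinetically: 10 s baseline, 3 min after compound (agonist portion), then 2 min after EC20 capsaicin (allosteric enhancer portion). Calcium-bound dye fluorescence at 480/520 nm.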
# CtBP-E1A blk: inhibitors of CtBP/E1A interaction; AlphaScreen GST-E1A/His-CtBP binding, 1536-well; stronger effect = lower value; control for the full effect not named in the record; AID 651724; activity change, % (test concentration not listed); 0.49% of 340,000 active; in the data active means activity change below about -65%; inconclusive means about -30% to -65%; inactive means above about -30%; also: % is scaled to controls: 0 for no effect and ±100 for the full control effect; compound concentration not given in the record
#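 Homogeneous bead-based format: GST-tagged E1A captured on glutathione donor beads, His-tagged CtBP on nickel acceptor beads; compounds precede bead addition by 2 h at 37 °C.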
# * hit, by the source's call; ? = inconclusive; / = no result given; [ ] = dose if it differs, or a comment.
# The first 3 compounds, ahead of the listing:
SMILES,gsp ag,gsp antag,ClpP mod,Sfp PPTase inh,Menin-MLL FL inh,TRPV1 potentiator,CtBP-E1A blk
O=C(CN1CCN(c2ccc(F)cc2)CC1)Nc1cc(C(F)(F)F)ccc1Cl,-25%,4%,-1.5%,6%,1.1,1,4
O=C(O)C1C2C=CC(C3CC23)C1C(=O)N1CCc2ccccc21 (stereo not given),-62%[inhibitor],6%,-5.9%,?,0.1,4,-12
O=C(Nc1ccccc1N1CCOCC1)c1ccco1,17%[15.4 µM],1%,/,13%,6.5,2,-2

# Results (from the top)
SMILES,gsp ag,gsp antag,ClpP mod,Sfp PPTase inh,Menin-MLL FL inh,TRPV1 potentiator,CtBP-E1A blk
O=C(CN1CCN(c2ccc(F)cc2)CC1)Nc1cc(C(F)(F)F)ccc1Cl,-25%,4%,-1.5%,6%,1.1,1,4
O=C(O)C1C2C=CC(C3CC23)C1C(=O)N1CCc2ccccc21 (stereo not given),-62%[inhibitor],6%,-5.9%,?,0.1,4,-12
O=C(Nc1ccccc1N1CCOCC1)c1ccco1,17%[15.4 µM],1%,/,13%,6.5,2,-2
CCN1C(=O)NC(c2cccnc2)C(C(=O)OC)=C1C (stereo not given),-18%,4%,-1.0%,1%,4.6,28,19
O=C(c1ccco1)N1CCN(C(=O)C2c3ccccc3Oc3ccccc32)CC1,-25%,-8%,0.9%,?,7.3,-1,7
Cc1cc(NC(=O)CSc2nc(-c3ccc(Cl)cc3)cs2)no1,-12%,1%,0.6%,9%,1.5,-3,3
CCC1CCCCN1C(=S)NC(=O)c1cccc([N+](=O)[O-])c1 (stereo not given),?,-2%,-0.4%,6%,/,25,2
O=[N+]([O-])c1cccc(NC(=S)N2CCOCC2)c1,-4%,8%,2.1%,11%,0.6,-11,10
O=C(c1ccc(F)cc1F)N1CCN(c2ncccn2)CC1,?,10%,-11%,16%,-0.2,-6,4
OCCSc1nc2ccccc2n1CCOc1ccccc1,-37%[inhibitor],3%,-1.2%,-3%,4.5,-8,2
COc1cc(C2NC(=O)NC(c3ccccc3)=C2C(C)=O)ccc1OCC(=O)O (stereo not given),2%,5%,0.1%,12%,1.5,-12,3
Cn1cnc([N+](=O)[O-])c1SCC(=O)NN,?,1%,2.1%,56µM*,0.0,19,/
CCOc1ccc(-n2c(=S)sc3c(=O)[nH]c(SCC(=O)C(C)(C)C)nc32)cc1,-14%,?,/,-29%,-2.7,8,-5
COc1ccc(CN2CCCC(CO)(Cc3ccc(F)cc3)C2)cc1C (stereo not given),5%,3%,-0.4%,22%,-3.9,-24,-8
COc1ccccc1NC(=O)C1CCN(C(=O)c2ccc(C(C)(C)C)cc2)CC1,-10%[15.4 µM],-16%,/,0%,-7.9,-18,2
O=c1nc(-c2ccccc2)n(-c2ccc(Cl)cc2)[nH]1,-23%,3%,?,7%,8.7,-1,2
CC(C)(C)n1nc2c(c1NC(=O)c1cc3ccccc3o1)CSC2,-1%[15.4 µM],0%,0.6%,6%,1.4,-12,0
COc1ccc(-c2nc(CN3CCCCC3CCc3ccccn3)c(C)o2)cc1 (stereo not given),-5%,6%,/,-4%,-0.5,5,-7
COc1cc(-c2nc3ccc4ccccc4c3c3c2CCC3)ccc1O,4%[15.4 µM],-34%,-16%,-7%,4.8,-10,0
CC1=CC(C)=Nc2ccccc2N1,-33%[inhibitor],3%,-5.9%,-6%,0.3,-6,7
CC(C)c1cc(C(=O)NC2CCCCCC2)c2ccccc2n1,-91%[inhibitor],/,-6.8%,/,/,/,-3
Cc1ccc(C)c(OCCC(=O)OCC(=O)N2CCN(c3ccccc3)CC2)c1,-41%[inhibitor],6%,-0.6%,-6%,-0.1,18,-3
CC1(C)CC(=O)C(=CN2CCOCC2)C(=O)C1,-19%,9%,/,-30%,-12,-4,7
CC(=O)Nc1cccc(NC(=O)COc2ccc3c(c2)CCC3)c1,?,-14%,-1.4%,/,/,-8,-3
Cc1[nH]n2c(=O)c3c(nc2c1-c1ccc(F)cc1)CCCC3,2%[15.4 µM],-3%,/,24%,-1.2,5,-8
SMILES,gsp ag,gsp antag,ClpP mod,Sfp PPTase inh,Menin-MLL FL inh,TRPV1 potentiator,CtBP-E1A blk
COc1ccccc1-c1cc2nc(C)c(CCC(=O)NCc3ccc(F)cc3)c(C)n2n1,22%[15.4 µM],?,/,-4%,3.7,-4,-4
COc1ccc(/C=C2\SC(=O)N(CC(=O)NCCCn3ccnc3)C2=O)cc1,18%,-8%,-2.2%,2%,-2.1,5,-17
COc1cccc(CN2CC(C(=O)NCCOc3ccccc3)CCC2=O)c1 (stereo not given),4%,18%,0.2%,4%,/,2,7
O=C(O)CSc1nnc(-c2ccncc2)n1Cc1ccccc1,-17%,8%,10%,12%,0.4,-8,4
O=C(Cc1ccsc1)NNC(=O)c1ccccc1O,-17%[15.4 µM],10%,/,/,/,5,-11
CCC(C)NC(=O)CSC1=Nc2ccccc2C2=NC(CC(=O)NCc3ccccc3)C(=O)N12 (stereo not given),23%,2%,28µM*,19%,4.1,2,2
CCCOc1ccc(N2C(=O)CC(NNC(=O)c3ccc(COc4ccccc4)o3)C2=O)cc1 (stereo not given),-2%,13%,-27%,4%,-1.3,-2,-5
CCn1c(Cc2ccccc2)nnc1SCC(=O)Nc1nnc(-c2ccccc2)s1,6%,7%,12%,13%,3.6,4,7
COc1ccc(-c2[nH]nc3c2C(c2ccc(OC(=O)N4CCOCC4)cc2)C(C#N)=C(N)O3)cc1 (stereo not given),-22%,-2%,-1.3%,-10%,6.2,-15,-9
CCCC(=O)C1=C(O)C(C(=O)OC)C(C)(C)CC1=N (stereo not given),-1%,16%,0.4%,19%,3.1,-12,3
Cc1cc(N/C=C\c2nnnn2-c2ccccc2)no1,?,-6%,0.2%,8%,6.8,-11,5
O=c1[nH]c2cc3c(cc2cc1CN(Cc1nnnn1CC1CCCO1)C1CCCC1)OCO3 (stereo not given),-5%,1%,?,0%,?,-4,-18
O=C(CNC(=O)C(c1ccccc1)c1ccccc1)N/N=C/c1ccc(O)cc1O,6%,-1%,-9.1%,17%,1.5,14,-18
CN(C(=O)CCNC(=O)Cn1cnc2ccccc2c1=O)c1ccccc1F,-1%,4%,-0.1%,5%,/,1,-20
O=S(=O)(c1ccc2nc(-c3ccco3)c(-c3ccco3)nc2c1)N1CCOCC1,3%,-13%,-11%,10µM*,5.1,5,-28
C=CCOC(=O)CCC(=O)Nc1cc(OC)nc(OC)n1,2%,4%,-1.5%,9%,4.0,?,-4
COc1ccc(C(=O)NC(=S)NCCO)cc1Br,-8%,-1%,-0.1%,?,2.9,24,13
CN(c1ccccc1)S(=O)(=O)c1cccc(C(=O)NCCc2c[nH]c3ccccc23)c1,?,?,-4.6%,/,/,/,-14
Cc1cccc(N(CC(=O)NC2CCCCC2)C(=O)Cn2nnc(-c3ccc(C)o3)n2)c1,4%[15.4 µM],-14%,/,1%,-2.8,4,0
COC(=O)c1ccc(CSc2ccc3nnc(-c4ccc(F)cc4)n3n2)o1,-14%,50%[activator],-17%,-10%,0.3,-19,/
O=C(NNC(=S)Nc1ccccc1Cl)c1ccccc1Cl,-21%,-1%,2.6%,16%,/,24,-1
CC(=O)c1cccc(NC(=O)NC2CCCCCCC2)c1,11%,-1%,-1.9%,1%,-5.3,-9,9
C/C(=N\NC(=O)c1ccccc1O)c1ccc(Br)s1,0%,-14%,-0.6%,10%,-1.6,5,-26
CCc1cccc(CC)c1NC(=O)COC(=O)c1ccc(F)c(S(=O)(=O)N(CC)CC)c1,23%,15%,-3.0%,2%,-2.6,0,14
Cc1cc(C)c2c(N)c(C(=O)Nc3ccc(C)c(C)c3)sc2n1,1%,-30%,9.3%,12%,0.3,-7,6

# Part of the list above, with each value named.
CC(=O)c1cccc(NC(=O)NC2CCCCCCC2)c1
  gsp ag: 11%
  gsp antag: -1%
  ClpP mod: -1.9%
  Sfp PPTase inh: 1%
  Menin-MLL FL inh: -5.3
  TRPV1 potentiator: -9
  CtBP-E1A blk: 9

C/C(=N\NC(=O)c1ccccc1O)c1ccc(Br)s1
  gsp ag: 0%
  gsp antag: -14%
  ClpP mod: -0.6%
  Sfp PPTase inh: 10%
  Menin-MLL FL inh: -1.6
  TRPV1 potentiator: 5
  CtBP-E1A blk: -26

CCc1cccc(CC)c1NC(=O)COC(=O)c1ccc(F)c(S(=O)(=O)N(CC)CC)c1
  gsp ag: 23%
  gsp antag: 15%
  ClpP mod: -3.0%
  Sfp PPTase inh: 2%
  Menin-MLL FL inh: -2.6
  TRPV1 potentiator: 0
  CtBP-E1A blk: 14

# Later entries:
SMILES,gsp ag,gsp antag,ClpP mod,Sfp PPTase inh,Menin-MLL FL inh,TRPV1 potentiator,CtBP-E1A blk
Cc1ccc(NC(=O)C(NC2CCCc3ccccc32)c2ccccc2)c([N+](=O)[O-])c1 (stereo not given),-6%,-8%,1.1%,-41%,4.7,1,-26
Cc1cc(NC(=O)c2cccc(S(=O)(=O)Nc3cccc(C(=O)O)c3)c2)no1,-2%[15.4 µM],9%,-0.3%,-11%,3.8,2,-1
O=CN1CCN(c2c([N+](=O)[O-])c(=O)oc3ccccc23)CC1,6%,-4%,-3.3%,7%,3.9,13,/
Cc1ccc(C)c(N2CCN(C(=O)c3ccc4nc(-c5ccco5)c(-c5ccco5)nc4c3)CC2)c1,-22%,?,-6.4%,20µM*,13,6,-7
CSCCC(NC(=O)c1ccc(C(C)(C)C)cc1)C(=O)OCC(=O)N1CCCC1=O (stereo not given),7%,-4%,0.8%,/,/,2,4
COc1ccc(CNC(=O)COc2cc(O)c3c(c2)OC(C)(C)CC3=O)c(OC)c1,/,-16%,-7.6%,0%,-6.9,-9,-4
O=[N+]([O-])c1cccc(/C=C/C=N/Nc2nc(N3CCCCC3)nc(N3CCCCC3)n2)c1,0%[15.4 µM],-21%,/,-48%,-5.5,7,2
Cc1cc(NC2CCCCC2)n2c(n1)nc1ccccc12,9%,-6%,4.0%,12%,0.7,-12,/
Cc1ccc(S(=O)(=O)N2CCNC(=O)C2)c(C)c1,6%,8%,-2.6%,/,/,3,-14
Cc1ccc(NC(=O)CCC(=O)NNC(=O)COc2ccccc2)cc1C,9%,9%,0.5%,-1%,1.9,5,-18

# Rows were taken by chance, and some 5.3% of all compounds hit somewhere here.
